# Menin-MLL FL inh: inhibitors of human menin-MLL interaction, wild-type MLL peptide. Fluorescence polarization, fluorescein-MLL peptide displacement from menin. FP activity change, % at 61.4 µM. 290,000 tested, under 10 active. AID 1766; inconclusive = falling polarisation curve, or a change in total fluorescence; inactive = total fluorescence flat and polarisation flat or rising; no compound was filed as active; the % refers to the polarisation; negative = inhibition;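 note: % of control where 0% means no effect; inhibitors lower the polarisation; unlabelled MLL peptide was the positive control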
# Sfp inh: blocks B. subtilis Sfp PPTase activity. Q9F4F7. Biochemical Sfp PPTase activity, qHTS. Potency, µM, without a hit: max response, negative = inhibition, usual class: inhibitors. 3.5% of 310,000 active. AID 1490; active = well fitted inhibition curve with a large enough effect; inconclusive = small, poorly fitted or top-dose-only effect, or another doubt; inactive = no such curve, though single readings can be large or run the other way;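 note: the enzyme is Sfp with the accession as filed and its product quenches rhodamine fluorescence; potency is the fitted concentration of half-maximal effect; 0% = enzyme reaction without inhibitor and -100% = no enzyme wells; top concentration of the series not given in the record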
#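 Fluorescence-quenching assay with 15 nM Sfp, 5 uM rhodamine-CoA and 12.5 uM BHQ-2-labelled ybbR peptide in pH 7.6 Hepes/MgCl2 buffer. Enzyme was pre-incubated with compound for 15 min at room temperature. Rate was taken from the 30-min fluorescence change (525/598 nm).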
# * marks the source's active call; other numbers are inactive results; ? = inconclusive; & = joins results of further samples; [ ] = remark or other dose.
# Sample of the layout, four compounds:
SMILES,Menin-MLL FL inh,Sfp inh
CC1CC=CC2C1C(=O)N(Cc1ccccc1)C2c1ccc(C(F)(F)F)cc1 (stereo not given),-1.3,2%
C=CCN(C(C(=O)OC)C(C)C)S(=O)(=O)CCl (stereo not given),?,15%
C/C(CCN1CCc2nc(-c3ccccc3)c(-c3ccccc3)cc2C1)=N\O[C@@H](C)CN1CCCc2nc(C)c(C)cc21,-3.2[11.7 µM],-2%
CC(C)Nc1ccc(Cl)cc1[N+](=O)[O-],4.0,8%

# The whole of this part (from the top)
SMILES,Menin-MLL FL inh,Sfp inh
CC1CC=CC2C1C(=O)N(Cc1ccccc1)C2c1ccc(C(F)(F)F)cc1 (stereo not given),-1.3,2%
C=CCN(C(C(=O)OC)C(C)C)S(=O)(=O)CCl (stereo not given),?,15%
C/C(CCN1CCc2nc(-c3ccccc3)c(-c3ccccc3)cc2C1)=N\O[C@@H](C)CN1CCCc2nc(C)c(C)cc21,-3.2[11.7 µM],-2%
CC(C)Nc1ccc(Cl)cc1[N+](=O)[O-],4.0,8%
Cc1cc(C)c(NC(=O)CN(CC(=O)O)CC(=O)O)c(C)c1Br,6.0,30%[activator]
CCOCC(=O)Nc1cc(Cl)c(OC)cc1OC,0.1,11%
C[C@@H](c1ccccc1)N1C(=O)[C@@H]2[C@H]3C(=CC[C@H]2C1=O)C(=O)[C@H]1O[C@H]1[C@H]3O,-6.9[11.7 µM],15%
CCCCc1ccc(-c2nc(NC(=O)C3C4CCC(O4)C3C(=O)O)sc2C)cc1 (stereo not given),3.0,1%
O=C1[C@H](CC[C@H](O)c2ccc(F)cc2)[C@@H](c2ccc(O)cc2)N1c1ccc(F)cc1,-0.8,24%
O=c1oc2cc(OCc3ccc(F)cc3F)ccc2cc1-c1ccc2ccccc2n1,15,-4%
O=C1CCC[C@@H](C2=CCCCC2=O)C1,-4.6[11.7 µM],6%
COC(=O)C1=C[C@@H](C(=O)OC)C2C3=C(C(=O)[C@]2(C)NC(=O)c2ccccc2)[C@H](C)n2c(=O)n(C)c(=O)n2[C@@H]3C1 (stereo not given in full),-1.0,11%
COC1C(OC(=O)/C=C/C=C/C=C/C=C/C(=O)O)CCC2(CO2)C1C1(C)OC1CC=C(C)C (stereo not given),7.8,-16%
CCn1c(SCC(=O)Nc2ccccc2C(=O)OC)nc2c1c(=O)n(C)c(=O)n2C,0.8,14%
CC1(C)CC[C@]2(C)CC[C@@]3(C)C(=CCC4[C@@]5(C)CCC(O)C(C)(C)C5CC[C@@]43C)C2C1 (stereo not given in full),-2.9,-1%
CC(C)(C)C#CC(CCc1ccccc1)OS(N)(=O)=O (stereo not given),2.5,14%
O=[n+]1ccn([O-])c2ccccc21,-2.5,4%
O=C(O)c1ccccc1OP(=O)(O)O,0.2,1%&12%
COc1cccc(-n2c([S-])c(C(=O)Nc3ccc(C(F)(F)F)cc3)[n+]3ccccc23)c1,-1.8,2%
Cc1ccc(SCC(CC(C)C)N2CCN(CCc3ccccc3)CCC2=O)cc1 (stereo not given),4.2,-30%
COC(=O)c1ccc(C(NC(=O)OCc2ccccc2)/C(=C/[C@@H](C)C(=O)NCc2ccc(S(C)(=O)=O)cc2)c2cccnc2)cc1 (stereo not given in full),-6.9,17%
Cc1ccc(NC(NC(=O)OCCn2c([N+](=O)[O-])cnc2C)C(Cl)(Cl)Cl)cc1 (stereo not given),6.6,16%
c1ccc(C2CCC(N3CCC(N4CCCCC4)CC3)CC2)cc1 (stereo not given),4.3,17%
NC(=O)c1cc([N+](=O)[O-])ccc1NCCN1C(=O)c2ccccc2C1=O,2.1,17%
O=C(CCc1ccc(S(=O)(=O)NCCc2ccccc2)cc1)N1CCN(Cc2ccc3c(c2)OCO3)CC1,4.3,10%
Cc1c(C(C)(C(=O)O)c2c(C)n(C)c3ccccc23)c2ccccc2n1C,-12,2%
Cc1ccc(OCc2nn3c(-c4n[nH]c5c4CCC5)nnc3s2)cc1,-1.2,10%
CCCCCCN(C(=O)CCCCCN1C(=O)NC(c2cccc([N+](=O)[O-])c2)C(C(=O)OCc2ccccc2)=C1C)C(C(=O)NCCCC)c1ccc(OCC(=O)OC)c(C(=O)OC)c1 (stereo not given),0.6&-2.0,18%&5%
CCOC(=O)Cn1c(=O)c2c(nc3n2CCN3c2ccc(C)cc2)n(C)c1=O,2.4,9%
CCNC(=O)c1c(N)sc2c1CCCCC2,?,35µM*

# Reprinted at random: 4 entries already listed
SMILES,Menin-MLL FL inh,Sfp inh
Cc1cc(C)c(NC(=O)CN(CC(=O)O)CC(=O)O)c(C)c1Br,6.0,30%[activator]
Cc1ccc(OCc2nn3c(-c4n[nH]c5c4CCC5)nnc3s2)cc1,-1.2,10%
COC(=O)C1=C[C@@H](C(=O)OC)C2C3=C(C(=O)[C@]2(C)NC(=O)c2ccccc2)[C@H](C)n2c(=O)n(C)c(=O)n2[C@@H]3C1 (stereo not given in full),-1.0,11%
Cc1ccc(SCC(CC(C)C)N2CCN(CCc3ccccc3)CCC2=O)cc1 (stereo not given),4.2,-30%

# (cont.)
SMILES,Menin-MLL FL inh,Sfp inh
COc1ccc2c(c1)C(=O)[C@H](OC(=O)NCc1ccc3c(c1)OCO3)[C@@H](c1ccc(OC)c(Br)c1)O2,1.1,5%
CC1CCN(C(=O)C2CCN(CCCc3ccccc3)CC2)CC1,0.4,-14%
CCOC(=O)c1cnc(SCC(=O)Nc2ccc(N3CCOCC3)cc2)nc1N,-0.6,5%
CC(C)=CCC/C(C)=C\COc1c2ccoc2cc2oc(=O)ccc12,65[activator],?
CC1CCC(C(C)C)C(P(=O)(c2ccccc2)c2ccccc2)C1 (stereo not given),0.1,3%
Cc1noc(C)c1-c1ccc2ncnc(NCc3cc(F)cc(F)c3)c2c1,-1.6,8%
CCCn1c(=O)c2[nH]c(-c3ccc(OCC(=O)Nc4ccc(C(C)=O)cc4)cc3)nc2n(CCC)c1=O,-12,5%
COC(=O)[C@@]1(Cc2ccccc2)[C@H]2c3cc(C(=O)N(C)C)n(CCSCCO)c3C[C@H]2CN1C(=O)c1ccccc1,5.8,9%
Cc1ccc(C2=NN(CC(=O)NCc3cccnc3)C(=O)CC2)cc1,1.9,6%
O=C(CN1CCCN(S(=O)(=O)c2ccc(Br)cc2)CC1)Nc1ccc2c(c1)OCO2,-0.3,-10%
CC(=O)N1[C@H](C)C=C[C@]1(Cc1ccccc1)C(=O)NCc1ccc(C)o1,?,22µM*
CC1=CC(=Nc2c(C)n(C)n(-c3ccccc3)c2=O)C=CC1=O,?,8.9µM*
Brc1cc2c(cc1/C=N/Nc1nc(N3CCCCC3)nc(N3CCCCC3)n1)OCO2,-1.2,8%
Cc1cc(CNC(=O)[C@H](C)[C@H]2C[C@]2(C)[C@H](NC(=O)OCc2ccccc2)c2ccccc2)nn1C,0.6,27%
COC(=O)C1=C(C)N(Cc2ccccc2)[C@]23O[C@](C(=O)OC)(C(=O)N2C1c1ccccc1)C(C(=O)OC)=C3C(=O)OC (stereo not given in full),1.0[11.7 µM],-6%
CCCCC(=O)OCC(=O)[C@]1(O)Cc2c(O)c3c(c(O)c2[C@H](OC2CC(NC(=O)C(F)(F)F)C(O)C(C)O2)C1)C(=O)c1c(OC)cccc1C3=O (stereo not given in full),-19,9%
Oc1ccc(C(O)CNCCCCCCNCC(O)c2ccc(O)c(O)c2)cc1O (stereo not given),-2.6,?
Cc1nc(N)sc1C(=O)N/N=C/c1ccccc1[N+](=O)[O-],-1.1,9%
OCCCc1nc2n(n1)C(c1cccs1)C=C(c1ccc(Br)cc1)N2 (stereo not given),?,?
CCN1CCN(CCOCCOc2ccccc2-c2ccccc2)CC1,-4.9,50µM*
COc1ccc(OC2C=CC(C#Cc3ccc(F)cc3F)OC2CO)cc1 (stereo not given),-0.7&8.8[11.7 µM],0%&-7%
COc1ccc(CC(=O)NNC(=O)Cc2ccc(OC)cc2)cc1,3.1,-5%
CCCOc1ccc2oc(=O)c3c(c2c1)CCCN3C(=O)CN1CCN(C(=O)c2ccco2)CC1,2.1,7%
Cc1nc(-c2ccccc2)c(-c2ccncc2)o1,1.4,11%
CCCCCCCCCCCCCCCC(=O)OC(CO)CO,-1.6,12%
COc1ccccc1N1CCN(C[C@@H]2CN3C(=O)N(C)c4ccccc4C3=N2)CC1,-4.9,15%
C[C@H]1[C@H]2CC[C@H]3[C@@H]4CC=C5C[C@@H](N(C)C)CC[C@]5(C)[C@H]4CC[C@]23CN1C,0.3,25%
O=C(NC1CCS(=O)(=O)C1)c1cccnc1 (stereo not given),-3.7,-21%
CC(C)C[C@@H](CC(=O)N[C@@H](CCCN)CC(=O)N[C@@H]1CCNC[C@H]1C(=O)N[C@H](CC(=O)N[C@@H](CCC(=O)O)CC(=O)O)Cc1ccccc1)NC(=O)[C@@H]1CCCC[C@H]1N,-7.2,1%
N[C@@H](Cc1c[nH]c2ccccc12)C(=O)O,-0.7&2.5,?
C#CCCCO/N=C1/C[C@@H](O)[C@@H](O)[C@@H]2[C@H]3C(=O)N(c4ccc(F)cc4F)C(=O)[C@@H]3CC[C@@H]12,-3.0[11.7 µM],16%
COc1cc(C(CCN2CCCC(C)C2)c2c(OC)cc(OC)c3c(C)cc(=O)oc23)cc(OC)c1OC (stereo not given),0.5,-9%
CC(=O)Oc1ccc(C2(c3ccc(OC(C)=O)cc3)C(=O)Nc3ccccc32)cc1,6.6&16,11%&22%
CC1=C(C(=O)OCC2CCCCC2)C(c2cccc(O)c2)NC(=O)N1 (stereo not given),-1.2,-2%
CCCn1c(SCC(=O)Nc2sc(C)c(C)c2C(=O)OC)nc2c1c(=O)n(C)c(=O)n2C,1.5,11%
Cn1nnc2c(C(N)=O)ncn2c1=O,-0.7&0.9&-2.5,-3%&-24%&13%
COc1ccc([C@@H]2CC(=O)c3c(O)cc(O[C@H]4O[C@@H](CO[C@H]5O[C@@H](C)[C@@H](O)[C@@H](O)[C@@H]5O)[C@@H](O)[C@@H](O)[C@@H]4O)cc3O2)cc1O,5.8[24.8 µM],21%
O=C(O)C1OC(O)C(O)C(O)C1O (stereo not given),-9.9,11%
Cc1cc(=O)c(C(=O)N[C@@H](C(=O)N[C@@H]2C(=O)N3C(C(=O)O)=C(CSc4nnnn4C)CS[C@H]23)c2ccc(O)cc2)c[nH]1,1.8,-23%
COc1ccc(CNC(=O)c2ccc(C)cc2)cc1,-1.9,14%
O=c1ccc2c(OCCCCOc3ccccc3)c3ccoc3cc2o1,3.7,-7%
O=C(Nc1cccc(C(F)(F)F)c1)c1cc(Br)cc(Br)c1O,-4.5,-10%
CCn1c2ccccc2c2cc(NC(=O)Nc3ccc([N+](=O)[O-])cc3C)ccc21,-2.4,56µM*
CCOC(=O)N/N=C1/C[C@@H](O)[C@@H](O)[C@@H]2[C@@H]3C(=O)N([C@@H](C)c4ccccc4)C(=O)[C@H]3CC[C@H]12,-3.9[11.7 µM],10%
CC(=O)Oc1c(C)cc(O)c2ccccc12,4.0,11%
COc1cccc2[nH]c3c(N4CC(C)CC(C)C4)ncnc3c12 (stereo not given),0.5,19%
COc1cccc(CC(NC(C)=O)C(=O)NC2CCN(c3c4c(nc5ncnn35)CCC4)CC2)c1OC (stereo not given),-3.9,25%
C[C@@H](C(=O)Nc1ccc2ccccc2c1)[C@@H]1C[C@@]1(C)[C@@H](NS(=O)(=O)c1ccccc1)c1ccccc1,7.7,29%
CC1=C(C(=O)OCC2CCCO2)C(c2ccc(C)o2)C2=C(CC(c3ccc(N(C)C)cc3)CC2=O)N1 (stereo not given),1.1,8%
CSCc1nnc(NC(=O)c2ccc(S(=O)(=O)N(CC(C)C)CC(C)C)cc2)o1,-0.2,26%
CN1CC(=O)N2C(Cc3c([nH]c4ccccc34)[C@H]2c2ccc3c(c2)OCO3)C1=O (stereo not given in full),1.1,9%
O[C@@H]1CO[C@H]2C1OC[C@@H]2O (stereo not given in full),-7.3,-3%
COC(=O)[C@@]1(Cc2ccc(OC)cc2)[C@H]2c3cc(C(=O)N(C)C)n(Cc4ccccn4)c3C[C@H]2CN1C(=O)c1ccccc1,-6.7,-10%
CSCCC(NC(=O)c1ccccc1)c1nc(-c2ccccc2)no1 (stereo not given),-1.4,5%
C=C(C)[C@H]1CC[C@]2(C(=O)O)CC[C@]3(C)[C@@H](CC[C@H]4[C@@]5(C)CC[C@@H](O)C(C)(C)[C@@H]5CC[C@@]43C)[C@H]12,-1.3[24.8 µM],24%
CCCC[C@H](NC(C)=O)C(=O)N[C@@H](CCC(=O)O)C(=O)N[C@@H](Cc1cnc[nH]1)C(=O)N[C@H](Cc1ccccc1)C(=O)N[C@@H](CCCN=C(N)N)C(=O)N[C@H](Cc1c[nH]c2ccccc12)C(=O)NCC(N)=O,0.9,34%[activator]
COc1cccc(CN2CC34CCC(CC3S2(=O)=O)O4)c1 (stereo not given),-6.0,1%

# This is a subset; count on the stated rates, not on these rows.
